# Bioassay records: PubChem BioAssay, Broad Institute
# NOMO-1 viab – NOMO-1 AML cell viability reduction, primary screen, STK33 inhibitor project, CellTiter-Glo luminescence. NOMO-1 AML viability, 72 h. inhibition, % (no concentration beside the values). hit rate 7.5% among 37,000;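 active means most replicates above 80%; inconclusive means exactly half above 80%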;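 further: wells of about 30 µL received 25 nL stock; 0% = median of vehicle wells and 100% = reference inhibitor level; the first replicate is given; inactives centre near 10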
# The depositor's hits bear a star; ? = inconclusive. Only part of the results is shown; the hit share may differ from the screen's.
# The opening twelve compounds, ahead of the listing:
SMILES,NOMO-1 viab
COc1ccc(/C=C/C(=O)NC(C)(C)C)cc1,-6
Cc1cc(C(=O)Nc2cccc3c2O[C@@H](CN(C)S(=O)(=O)c2ccccc2)[C@H](C)CN([C@H](C)CO)C3=O)n(C)n1,-6
O=C(O)c1cccc(NS(=O)(=O)c2cc(S(=O)(=O)c3ccc(Cl)cc3)ccc2Cl)c1,1
CSc1scc2c1C(=O)CC(C)(C)C2,21
CC(C)NC(=O)Nc1ccc2c(c1)C(=O)N([C@@H](C)CO)C[C@@H](C)[C@@H](CN(C)Cc1ccncc1)O2,8
C[C@@H]1CN([C@@H](C)CO)C(=O)c2cc(NC(=O)Nc3ccccc3)ccc2O[C@@H]1CN(C)Cc1ccncc1,4
C[C@@H]1CN([C@H](C)CO)C(=O)c2cc(NC(=O)Nc3ccc4c(c3)OCO4)ccc2O[C@H]1CN(C)Cc1ccc(-c2ccccc2)cc1,113*
CC(=O)CCc1c(C)[nH]c2ccccc2c1=O,13
COc1ccc(C)cc1S(=O)(=O)N1CCC(C(=O)Nc2ccc3c(c2)OCCO3)CC1,6
Cc1nc(SCC(=O)Nc2ccc3c(c2)OCCO3)c2c3c(sc2n1)CCC3,13
O=C(CSc1nc2sc3c(c2c(=O)n1-c1ccccc1)CCCC3)Nc1ccccc1,29
C[C@H](CO)N1C[C@H](C)[C@H](CN(C)C(=O)Nc2ccccc2)Oc2c(cccc2N(C)C)C1=O,12

# Results, previewed entries included:
SMILES,NOMO-1 viab
COc1ccc(/C=C/C(=O)NC(C)(C)C)cc1,-6
Cc1cc(C(=O)Nc2cccc3c2O[C@@H](CN(C)S(=O)(=O)c2ccccc2)[C@H](C)CN([C@H](C)CO)C3=O)n(C)n1,-6
O=C(O)c1cccc(NS(=O)(=O)c2cc(S(=O)(=O)c3ccc(Cl)cc3)ccc2Cl)c1,1
CSc1scc2c1C(=O)CC(C)(C)C2,21
CC(C)NC(=O)Nc1ccc2c(c1)C(=O)N([C@@H](C)CO)C[C@@H](C)[C@@H](CN(C)Cc1ccncc1)O2,8
C[C@@H]1CN([C@@H](C)CO)C(=O)c2cc(NC(=O)Nc3ccccc3)ccc2O[C@@H]1CN(C)Cc1ccncc1,4
C[C@@H]1CN([C@H](C)CO)C(=O)c2cc(NC(=O)Nc3ccc4c(c3)OCO4)ccc2O[C@H]1CN(C)Cc1ccc(-c2ccccc2)cc1,113*
CC(=O)CCc1c(C)[nH]c2ccccc2c1=O,13
COc1ccc(C)cc1S(=O)(=O)N1CCC(C(=O)Nc2ccc3c(c2)OCCO3)CC1,6
Cc1nc(SCC(=O)Nc2ccc3c(c2)OCCO3)c2c3c(sc2n1)CCC3,13
O=C(CSc1nc2sc3c(c2c(=O)n1-c1ccccc1)CCCC3)Nc1ccccc1,29
C[C@H](CO)N1C[C@H](C)[C@H](CN(C)C(=O)Nc2ccccc2)Oc2c(cccc2N(C)C)C1=O,12
Cc1noc(C)c1NC(=O)N(C)C[C@H]1Oc2c(NC(=O)CCCCCC(=O)Nc3ccccc3N)cccc2C(=O)N([C@@H](C)CO)C[C@@H]1C,-6
CS(=O)(=O)N1CCN(CC(O)Cn2c3ccc(Cl)cc3c3cc(Cl)ccc32)CC1 (centres undefined),20
CC(C)NC(=O)N(C)C[C@@H]1Oc2ccc(NC(=O)Nc3ccc(F)cc3)cc2C(=O)N([C@@H](C)CO)C[C@@H]1C,14
C[C@H]1CN([C@@H](C)CO)C(=O)c2cc(NS(=O)(=O)c3ccc(F)cc3)ccc2O[C@H]1CN(C)S(=O)(=O)c1cccs1,17
Cc1nc(SCC(=O)NCc2ccco2)c2c3c(sc2n1)CCC3,14
COc1cc(=O)oc([C@@]2(C)O[C@H]2/C(C)=C\C(C)=C\[C@@]2(C)O[C@@H](C)[C@]3(C)OC23)c1C (some centres undefined),74
COc1ccc(NC(=O)Nc2ccc3c(c2)C(=O)N([C@@H](C)CO)C[C@H](C)[C@H](CN(C)S(=O)(=O)c2cccs2)O3)cc1,38
O=C(COc1ccccc1[N+](=O)[O-])Nc1cccc(Cl)c1N1CCOCC1,83*
O=C(COc1ccc(Br)cc1)Nc1cccc2ncccc12,51
C[C@H]1CN([C@@H](C)CO)C(=O)Cc2cc(NC(=O)Nc3ccccc3)ccc2O[C@@H]1CN(C)CC1CCCCC1,101*
Cc1ccc(-c2nn3c(=O)c4ccccc4nc3c3ccccc23)cc1,-8
C[C@@H]1CN([C@H](C)CO)C(=O)c2cccc(NS(C)(=O)=O)c2O[C@@H]1CN(C)Cc1ccc(Cl)c(Cl)c1,-8
CNC[C@H]1Oc2ccc(NC(=O)Nc3ccc4c(c3)OCO4)cc2CC(=O)N([C@@H](C)CO)C[C@H]1C,31

# Later entries:
SMILES,NOMO-1 viab
C[C@@H]1CN([C@@H](C)CO)C(=O)c2cc(NS(=O)(=O)c3cccs3)ccc2O[C@@H]1CN(C)C(=O)NC1CCCCC1,-8
COc1ccc(S(=O)(=O)N(C)CC(=O)NC2CCCC2)cc1C,16
C[C@H](CO)N1C[C@H](C)[C@H](CN(C)CC2CC2)Oc2c(NC(=O)NC3CCCCC3)cccc2C1=O,11
Cc1noc(C)c1NC(=O)N(C)C[C@@H]1Oc2ccc(NC(=O)CCN3CCOCC3)cc2C(=O)N([C@H](C)CO)C[C@H]1C,-9
C[C@@H]1O[C@@H](O[C@H]2[C@H](Oc3cc(O)c4c(c3)O[C@H](c3ccc(O)c(O)c3)CC4=O)O[C@H](CO)[C@@H](O)[C@@H]2O)[C@H](O)[C@H](O)[C@H]1O,10
CC(C)(C)c1cc2nc(N)nc(N)n2n1,-7
COc1ccc(NC(=O)CNC(=O)c2ccccc2C)cc1,-21
CCOC(=O)c1c(N(C)C)ccc(C2C=CNC(=O)N2)c1C (centres undefined),24
COc1ccc(S(=O)(=O)Nc2ccc3c(c2)CC(=O)N([C@H](C)CO)C[C@@H](C)[C@H](CN(C)C)O3)cc1,-30
C[C@H]1CN([C@@H](C)CO)C(=O)c2cc(NS(=O)(=O)c3ccc(F)cc3)ccc2O[C@@H]1CN(C)C(=O)Nc1ccccc1,7
O=C(CN1C(=O)c2ccccc2C1=O)c1ccc(C(F)(F)F)cc1,-16
Cn1c(SCC(=O)Nc2cccc(C(F)(F)F)c2)nnc1-c1cc2cc(Cl)ccc2o1,14
COc1ccc(OC)c(C(=O)CSc2nnc(-c3cccs3)n2C)c1,24
CC(C)NCC(O)COc1ccccc1-n1cccc1 (centres undefined),-14
C[C@H](CO)N1C[C@H](C)[C@H](CN(C)C)Oc2ccc(NC(=O)Nc3ccc4c(c3)OCO4)cc2C1=O,-8
O=C(NCc1cccnc1)c1cccc(NC(=O)c2ccco2)c1,8
C[C@H]1CN([C@@H](C)CO)C(=O)Cc2cc(NC(=O)Nc3ccc4c(c3)OCO4)ccc2O[C@H]1CN(C)CC1CCCCC1,31
C[C@@H]1CN([C@@H](C)CO)C(=O)Cc2cc(NS(C)(=O)=O)ccc2O[C@@H]1CN(C)S(=O)(=O)c1cccs1,3
C[C@@H]1CN([C@@H](C)CO)C(=O)c2cc(NC(=O)Nc3cccc4ccccc34)ccc2O[C@@H]1CN(C)S(=O)(=O)c1ccccc1,-10
COc1ccc(NC(=O)N(C)C[C@H]2Oc3ccc(NS(=O)(=O)c4cccs4)cc3C(=O)N([C@@H](C)CO)C[C@@H]2C)cc1,13
Cc1ccccc1-c1nc(SCC(=O)Nc2ccccc2)n[nH]1,-6
CC(=O)O[C@@H]1c2c(ccc3ccc(=O)oc23)O[C@@H]1C(C)(C)OC(=O)C=C(C)C,-7
COc1ccc(NC(=O)Nc2cccc3c2O[C@@H](CN(C)C(=O)Nc2ccccc2)[C@H](C)CN([C@H](C)CO)C3=O)cc1,19
CC(C)NC(=O)Nc1cccc2c1O[C@@H](CN(C)C)[C@@H](C)CN([C@H](C)CO)C2=O,-10
COc1ccc(C)cc1S(=O)(=O)N1CCCC(C(=O)Nc2ccccc2)C1 (centres undefined),5

# Next part
SMILES,NOMO-1 viab
C[C@H]1CN([C@@H](C)CO)C(=O)c2cc(NS(=O)(=O)c3ccccc3)ccc2O[C@@H]1CN(C)S(=O)(=O)c1ccccc1,8
COc1ccc(NC(=O)Nc2ccc3c(c2)CC(=O)N([C@@H](C)CO)C[C@H](C)[C@H](CN(C)CC2CC2)O3)cc1,9
Cc1cccc(C)c1OCC(=O)Nc1ccccc1C(=O)Nc1ccc(C(=O)O)cc1,0
COc1ccc(CN(C)C[C@H]2Oc3c(NC(=O)Nc4ccc(F)cc4)cccc3C(=O)N([C@@H](C)CO)C[C@@H]2C)cc1,56
COc1ccc(NC(=O)C(=O)NCCCO)c(OC)c1,-32
C[C@@H]1CN([C@@H](C)CO)C(=O)Cc2cc(NS(=O)(=O)c3cn(C)cn3)ccc2O[C@@H]1CN(C)CC1CC1,-5
Cc1ccc(C(=O)OC(c2ccccc2)c2nccc3ccccc23)cc1 (centres undefined),38
O=c1[nH]c(CSc2nnc(-c3cccnc3)n2-c2ccccc2)nc2ccccc12,12
Cc1noc(C)c1S(=O)(=O)Nc1ccc2c(c1)C(=O)N([C@@H](C)CO)C[C@@H](C)[C@@H](CN(C)S(=O)(=O)c1ccccc1)O2,-4
COC(=O)CNC(=O)c1cn(-c2ccccc2)nc1-c1ccc([N+](=O)[O-])cc1,3
COc1ccc(C)cc1NC(=O)CN(C)S(=O)(=O)c1ccccc1,-4
Cc1ccc(S(=O)(=O)Nc2ccc3c(c2)C(=O)N([C@H](C)CO)C[C@@H](C)[C@@H](CN(C)S(=O)(=O)c2c(C)noc2C)O3)cc1,-6
CN(C)C1=NC(C(F)(F)F)(C(F)(F)F)N=C(c2ccccc2)O1,-6
CC(C)NC(=O)Nc1ccc2c(c1)CC(=O)N([C@@H](C)CO)C[C@@H](C)[C@@H](CN(C)C(=O)Nc1ccc3c(c1)OCO3)O2,18
CCn1c(SCC(=O)Nc2c(C)cc(C)cc2C)nnc1-c1ccccc1C,-8
CNc1nc(SC(C)C(=O)Nc2ccc(Cl)c(Cl)c2)nc(N2CCOCC2)n1 (centres undefined),33
CNC[C@@H]1Oc2c(NC(=O)c3ccncc3)cccc2C(=O)N([C@@H](C)CO)C[C@H]1C,-1
CCOc1ccc(NC(=O)C(C)Sc2ncnc3sc(-c4ccccc4)cc23)cc1 (centres undefined),8
Cc1ccc(S(=O)(=O)Nc2ccc3c(c2)CC(=O)N([C@H](C)CO)C[C@@H](C)[C@@H](CN(C)Cc2ccc(Cl)c(Cl)c2)O3)cc1,116*
C[C@H]1CN([C@@H](C)CO)C(=O)Cc2cc(NS(C)(=O)=O)ccc2O[C@H]1CN(C)Cc1ccccc1,-2
Cc1ccoc1CC[N+](C)(C)C,4
C=C(C(=O)O)[C@@H]1CC[C@@]2(C)CCC=C(C)[C@@H]2C1,6
O=C(Nc1cnn(Cc2ccc(Cl)cc2Cl)c1)C1CC(c2cccc(Br)c2)=NO1 (centres undefined),20
C[C@H](CO)N1C[C@H](C)[C@@H](CN(C)Cc2ccc(Cl)c(Cl)c2)Oc2ccc(NC(=O)Nc3ccc4c(c3)OCO4)cc2C1=O,101*
Cc1nnc(Nc2cccc(Cl)c2C)s1,10

# Remaining list, next part
SMILES,NOMO-1 viab
O=C(CN1CC(=O)Oc2ccccc21)OCC(=O)c1ccccc1,103*
CC(C)(C)c1ccc(Oc2c(C(F)(F)F)oc3cc(OCC(=O)O)ccc3c2=O)cc1,13
Cc1cc(C)c2nc(-c3ccncc3)cc(C(=O)NCCCn3ccnc3)c2c1,-4
C[C@@H]1CN([C@H](C)CO)C(=O)c2cc(NC(=O)c3ccncc3)ccc2O[C@@H]1CN(C)Cc1ccc(C(=O)Nc2ccccc2N)cc1,?
Cn1ccnc1SCC(=O)Nc1ccc2c(c1)COC2=O,3
COc1ccc(OC)c(NC(=O)C2=C(C)NC(=S)NC2c2ccc(OC)cc2OC)c1 (centres undefined),38
C[C@H](CO)N1C[C@H](C)[C@H](CN(C)Cc2ccncc2)Oc2ccc(NC(=O)c3ccncc3)cc2CC1=O,4
Oc1c(C(Nc2cccnc2)c2ccc(C(F)(F)F)cc2)ccc2cccnc12 (centres undefined),109*
Clc1ccc(CSc2nnc(-c3cccs3)n2Cc2ccco2)c(Cl)c1,18
Cc1cccc(C(=O)NCc2n[nH]c(=S)n2-c2ccccc2)c1,0
C[C@@H]1CCCCO[C@@H](CN(C)Cc2ccc(Cl)c(Cl)c2)[C@@H](C)CN([C@H](C)CO)C(=O)c2cc(NS(C)(=O)=O)ccc2O1,42
C[C@@H]1CN([C@@H](C)CO)C(=O)c2cccc(NC(=O)Nc3ccccc3)c2O[C@@H]1CN(C)Cc1ccc(Cl)c(Cl)c1,116*
Cc1ccc(S(=O)(=O)Nc2ccc3c(c2)C(=O)N([C@@H](C)CO)C[C@@H](C)[C@@H](CN(C)S(=O)(=O)c2ccccc2)O3)cc1,-1
CCCC1=C(C(=O)OCC)C(c2cccnc2)n2nc(C)nc2N1 (centres undefined),19
C[C@H]1CN([C@@H](C)CO)C(=O)c2cc(NC(=O)c3ccncc3)ccc2O[C@@H]1CN(C)C(=O)NC1CCCCC1,19
C[C@@H]1CN([C@H](C)CO)C(=O)Cc2cc(NS(=O)(=O)c3ccccc3)ccc2O[C@@H]1CN(C)S(C)(=O)=O,6
C[C@H]1CN([C@@H](C)CO)C(=O)c2cc(NS(C)(=O)=O)ccc2O[C@H]1CN(C)C(=O)Nc1ccc2c(c1)OCO2,-15
Cc1cc(C(=O)Nc2cccc3c2O[C@H](CN(C)S(=O)(=O)c2c(C)noc2C)[C@H](C)CN([C@@H](C)CO)C3=O)n(C)n1,-1
CCOC(=O)c1c(C)n(C)c2ccc(OC(=O)CN3C(=O)c4ccccc4C3=O)cc12,11
C[C@H]1CN([C@@H](C)CO)C(=O)Cc2cc(NC(=O)Nc3ccc(F)cc3)ccc2O[C@H]1CN(C)S(=O)(=O)c1cccs1,37
